StopGo reporter = lowers the luciferase signal of an FMDV 2A StopGo reporter; human cells with a luciferase reporter of 2A StopGo recoding; control for the full effect not named in the record; Potency, µM (highest dose often 57.9 µM), for inactives: at the top dose signal change, negative = less light; 1.2% of 410,000 active; active = well fitted falling curve with a large enough effect; inconclusive = small, poorly fitted or top-dose-only effect; inactive = no such curve, though single readings can be large or run the other way; tested in HEK293T cells; note: nearly all actives have a fitted effect of over 45% in size; luciferase light after 4 h
RE007 growth inh = less growth of the S. pombe RE007 Vpr strain | S. pombe RE007 Vpr strain, BacTiter-Glo ATP luminescence, 24 h; control for the full effect not named in the record | 0.21% of 360,000 active | AID 651644 | Potency, µM (top dose mostly 92.2 µM), inactives show top-dose activity change, negative = less growth; active = well fitted falling curve with a large enough effect; inconclusive = small, poorly fitted or top-dose-only effect; inactive = no such curve, though single readings can be large or run the other way;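 note: nearly all actives have a fitted effect of over 50% in size; the assay follows cell death caused by Vpr and the record does not say whether a fall means rescue or toxicity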
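Fission yeast strain RE007, carrying one chromosomally integrated HIV-1 vpr copy, was seeded at OD 0.01 in PMG+AL medium with 23 nL pinned compound. After 24 h at 30 °C and 99% humidity, viability was read by BacTiter-Glo luminescence.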
* = called active by the depositor; ? = inconclusive; [ ] = another dose, or the depositor's remark. % is set by controls: 0 for no effect and ±100 for the full control effect; potency is the fitted concentration of half-maximal effect. These rows are one share of the data. The share of hits here may be higher or lower than overall.

SMILES	StopGo reporter	RE007 growth inh
Cc1cn([C@H]2C[C@H](O)[C@@H](/C=C/C(=O)NCCC(c3ccccc3)c3ccccc3)O2)c(=O)[nH]c1=O	-14%	-3%
O=C(CN(CCO)Cc1ccccc1)N1CCN(S(=O)(=O)c2ccccc2)CC1	-8%	8%
NC(COCc1ccccc1)c1csc(Nc2nccc(C(F)(F)F)n2)n1 (stereo not given)	-12%	-6%[18.4 µM]
CNc1cncc(-c2cccc(C(=O)N(C)C)c2)n1	6%	6%
Cn1nc(C2CC2)cc1NC(=O)C1(C)CCN1C(=O)CCc1ccccc1 (stereo not given)	-20%	5%
O=C1C=C(c2cc3ccccc3s2)CCC1	50%[activator]	-10%
CC1=C(C(=O)N2CCOCC2)CC(CC(=O)NCCN2CCOCC2)C(=O)N1Cc1ccc(C(C)(C)C)cc1 (stereo not given)	-1%	3%
O=C(c1ccc(F)cc1)C1CCN(Cc2ccccc2)CC1	-1%	-2%
CC1=C(C(=O)N(C(C)C)C(C)C)CC(CC(=O)NC2CCCC2)C(=O)N1CCC1=CCCCC1 (stereo not given)	0%	0%
CCCCCCCCCCCCN1[C@@H](CC(=O)O)c2cc(C(F)(F)F)ccc2S1(=O)=O	2%	?
Cc1ccc(C2=NOC(c3nnc(-c4ccccc4)o3)C2)cc1 (stereo not given)	0%	15%
O=C(NCc1cccnc1)c1csc([C@@H]2C[C@H](O)[C@@H](CO)O2)n1	-17%	-6%[18.4 µM]

Quoted at random: seven records from the list, in no set order.
SMILES	StopGo reporter	RE007 growth inh
Cn1nc(C2CC2)cc1NC(=O)C1(C)CCN1C(=O)CCc1ccccc1 (stereo not given)	-20%	5%
CCCCCCCCCCCCN1[C@@H](CC(=O)O)c2cc(C(F)(F)F)ccc2S1(=O)=O	2%	?
O=C1C=C(c2cc3ccccc3s2)CCC1	50%[activator]	-10%
CC1=C(C(=O)N2CCOCC2)CC(CC(=O)NCCN2CCOCC2)C(=O)N1Cc1ccc(C(C)(C)C)cc1 (stereo not given)	-1%	3%
CC1=C(C(=O)N(C(C)C)C(C)C)CC(CC(=O)NC2CCCC2)C(=O)N1CCC1=CCCCC1 (stereo not given)	0%	0%
CNc1cncc(-c2cccc(C(=O)N(C)C)c2)n1	6%	6%
O=C(NCc1cccnc1)c1csc([C@@H]2C[C@H](O)[C@@H](CO)O2)n1	-17%	-6%[18.4 µM]

Other structures
SMILES	StopGo reporter	RE007 growth inh
COc1ccccc1Cc1c(-c2ccc(F)cc2)nc2c(C)cc(Br)cn12	-19%	8%
CS(=O)(=O)N1CCCCC1c1cc(C(=O)Nc2ccccc2)no1 (stereo not given)	-13%	5%
Cc1onc(-c2ccccc2)c1C(=O)N1CCC(C)(C(=O)O)C1 (stereo not given)	-11%	2%
Cc1ccc(NC(=O)c2ncn(CCCNCc3ccccn3)n2)cc1C	2%	-8%
COc1ccc(N2CCN(C(=O)C(=O)c3cc(OC)c4ccccc4c3)CC2)cc1	-12%	-16%
Cc1noc(C)c1-c1ccc(C(=O)NCCC(F)(F)F)c2occc12	8%	-7%
CC(C)Cc1ccc(-c2cc3nc(NCCCn4ccnc4)ccn3n2)cc1	12%	1%[18.4 µM]
CC1(Cc2ccc(Cl)cc2)C(=O)Nc2c(Cl)ccc(Cl)c21 (stereo not given)	0%	-27%
COc1ccc(S(=O)(=O)N2CCOCC2)cc1NC(=O)c1ccc(S(=O)(=O)N2CCCCC2)cc1	-19%	0%
COc1cccc(NC(=O)C2(C)CCN2C(=O)Cc2ccc(-c3ccccc3)cc2)c1 (stereo not given)	-21%	3%[18.4 µM]
CC1(Oc2cnc(Cl)c3ccccc23)CCN(Cc2ccc(-c3ccccn3)cc2)C1 (stereo not given)	-20%	-18%[18.4 µM]
COc1ncnc2c1ncn2CCCN(CCCc1ccccc1)CCCn1cnc2c(OC)ncnc21	-16%	3%
CC(C)n1nnnc1C1c2ccccc2C(=O)N1CCCn1ccnc1 (stereo not given)	-12%	2%
COc1ccc(N(C)S(=O)(=O)c2cccc(C(=O)N3CCN(c4cccc(C)c4C)CC3)c2)cc1	?	8%
Cc1ccc(-c2nc3c(C)cc(Br)cn3c2Cc2ccsc2)cc1	-15%	6%
COC(=O)[C@]12CCCCC=C1N(Cc1ccc(Cl)cc1Cl)C(=O)[C@H](CC(=O)N1CCCCC1)C2	-20%	2%
COc1cc(Cl)ccc1OC1(C)CCN(Cc2ccccc2OC(F)F)C1 (stereo not given)	?	-25%
CCN(c1ccccc1)S(=O)(=O)c1cc(C(=O)NCC(c2ccc(OC)cc2)N(C)C)ccc1C (stereo not given)	-9%	-5%
CCOC(=O)C1=C[C@@H](C(C)(C)C)N(S(=O)(=O)c2ccc(C)cc2)[C@H]1c1ccc(C#N)cc1	-27%	0%
C[C@H]1CN([C@@H](C)CO)C(=O)CCCn2nncc2CO[C@H]1CN(C)S(=O)(=O)c1ccc2ccccc2c1	-20%	-19%
COC(=O)[C@@]12C[C@@H](CC(=O)NCc3ccc(C)o3)C(=O)N(Cc3cccc4ccccc34)C1=CCC(C)(C)C2	-11%	0%
COc1ccc(C(c2nnnn2Cc2ccccc2)N2CCC3(CC2)C(=O)NCN3c2ccccc2)cc1 (stereo not given)	-7%	-5%
O=C1NC[C@@H](CCCCN2CCN(CCc3ccc(O)cc3)C(=O)C2=O)N(CCc2ccc(O)cc2)C1=O	-27%	3%
CC1(C(=O)NCc2cccc3ccccc23)CCN1C(=O)C1(c2ccccc2)CCCC1 (stereo not given)	?	23%[18.4 µM]
CC1CN(S(=O)(=O)c2cccc(C(=O)N(C)C3CCCCC3)c2)CC(C)O1 (stereo not given)	?	2%
CC(C)N1CCN(c2ccncc2S(=O)(=O)N2CCN(C)CC2)CC1	-1%	-16%
CCOC(=O)[C@]12CCC=C1N(Cc1ccc3c(c1)OCO3)C(=O)[C@H](CC(=O)NCc1ccccc1)C2	-1%	9%
COc1ccccc1CNC(=O)C[C@H]1CC[C@@H]2[C@H](COC[C@H](O)CN2Cc2ccc3c(c2)OCO3)O1	-23%	-4%
CN(C(=O)COC(=O)COc1ccc(N(C)S(=O)(=O)c2ccc(Cl)cc2)cc1)c1ccccc1	-14%	-7%
O=C(C1=C(O)C(=O)N(CCN2CCOCC2)C1c1cccc([N+](=O)[O-])c1)c1cc2ccccc2o1 (stereo not given)	-25%	-21%
Cc1cn([C@H]2C[C@H](O)[C@@H](CNC/C=C/c3ccccc3[N+](=O)[O-])O2)c(=O)[nH]c1=O	0%	-18%
CC(C)(C)n1nnnc1C(C1CC1)N1CCC2(CC1)C(=O)NCN2c1ccccc1 (stereo not given)	-20%	-3%
O=C(NCc1cccnc1)c1cc(C2CCCCN2C(=O)c2ccccc2)on1 (stereo not given)	-6%	2%
C[C@@H]1CN([C@@H](C)CO)C(=O)c2cc(NC(=O)C3CCCCC3)ccc2O[C@@H](C)CCCCO[C@@H]1CN(C)Cc1ccncc1	?	6%
CC(=O)Nc1cccc(-c2cnc(NC(C)=O)cn2)c1	42%[activator]	45%
O=c1[nH]c2ccccc2n1C1CCN(C(c2cccc3ccccc23)c2nnnn2-c2ccc3c(c2)OCCO3)CC1 (stereo not given)	?	5%
Cc1cc(C)c(NC2=NCCS2)cc1C	-15%	-17%
CC1(C(=O)NS(=O)(=O)Cc2ccccc2C(F)(F)F)CCN1C(=O)c1ccccc1 (stereo not given)	-18%	8%[18.4 µM]
CC(=O)Nc1ccc(C(=O)N2CCCC(c3cc(C(=O)Nc4ccccc4Cl)no3)C2)cc1 (stereo not given)	0%	-5%
CCCNC(=O)C[C@@H]1C[C@@H]2c3cc(NS(=O)(=O)c4ccc(OC)cc4)ccc3O[C@@H]2[C@@H](CO)O1	1%	10%
COc1ccc(S(=O)(=O)N(C)C[C@@H]2Oc3cc(C#CC4CCCCC4)ccc3S(=O)(=O)N([C@@H](C)CO)C[C@@H]2C)cc1	-18%	1%
Cc1c(-c2ccc(OCCN3CCOCC3)cc2)c(=O)oc2ccc3ccccc3c12	-24%	17%
C[C@H]1CN([C@@H](C)CO)C(=O)CCCn2nncc2CO[C@H]1CN(C)C(=O)C1CC1	-22%	-8%
COc1ccc(S(=O)(=O)NC(=O)C2(C)CCN2C(=O)c2ccccc2CCc2ccccc2)cc1 (stereo not given)	-10%	-1%[18.4 µM]
CCn1cc(/C=C(\NC(=O)c2ccccc2OC)C(=O)NCCN2CCOCC2)c2ccccc21	-21%	-8%
COc1ccc(-c2nc3c(Cl)cc(C(F)(F)F)cn3c2Cc2ccccc2C(F)(F)F)cc1OC	-16%	4%
CCOC(=O)C(C)N1c2cccc3cccc(c23)S1(=O)=O (stereo not given)	-17%	-5%
CC1(C(=O)NS(=O)(=O)c2cccc(F)c2)CCN1C(=O)Cc1cc(F)ccc1F (stereo not given)	-9%	8%[18.4 µM]
CC(=O)Nc1ccc(-c2ccnc3c2CC(C)(C(=O)Nc2cccc(C(C)=O)c2)O3)cc1 (stereo not given)	-13%	5%[18.4 µM]
COc1ccc(NC(=O)C2Cc3c(-c4cccc(F)c4)ccnc3O2)cn1 (stereo not given)	-25%	-18%
CCC(=O)NCCCc1nc(-c2ccccc2)no1	25%	5%
CC1=C(C(=O)OCC(Br)(Br)Br)C(c2cccc([N+](=O)[O-])c2)NC(=O)N1CCCC(=O)O (stereo not given)	-13%	-12%
N#Cc1ccc(C(=O)Nc2cc(S(=O)(=O)N3CCOCC3)ccc2N2CCOCC2)cc1	-14%	-1%
CC1(C(=O)Nc2cccc(OC(F)(F)F)c2)Cc2c(-c3cccc(C(N)=O)c3)ccnc2O1 (stereo not given)	-29%	1%
CCOC(=O)C1=CCC(c2ccc(Cl)cc2)N(S(=O)(=O)c2ccc(C)cc2)C1 (stereo not given)	-7%	0%
Cc1cc(Cl)ccc1N(CC(=O)N(C)Cc1ccccc1)S(C)(=O)=O	-13%	9%
CON=C(C(=O)NC1C(=O)N2C(C(=O)O)=C(CSc3nc(=O)c(=O)[nH]n3C)CSC12)c1csc(N)n1 (stereo not given)	-14%	24%[18.4 µM]
COc1ccc(-c2cc(NC(C)=O)c3ncc(-c4ccc(OC)c(OC)c4)n3c2)c(OC)c1	-11%	-15%
NC(COCc1ccccc1)c1csc(Nc2nncc3ccccc23)n1 (stereo not given)	12%	2%[18.4 µM]
COCCNC(=O)c1ccc2c(c1)S(=O)(=O)c1ccccc1C2=O	-3%	5%

Rewritten with values under each structure: entries from further up.
Below each compound: StopGo reporter | RE007 growth inh
CC1=C(C(=O)OCC(Br)(Br)Br)C(c2cccc([N+](=O)[O-])c2)NC(=O)N1CCCC(=O)O (stereo not given)
 : -13% | -12%
N#Cc1ccc(C(=O)Nc2cc(S(=O)(=O)N3CCOCC3)ccc2N2CCOCC2)cc1
 : -14% | -1%

(cont.)
SMILES	StopGo reporter	RE007 growth inh
CC(=O)Nc1ccc(-c2ccnc3c2CC(C)(C(=O)Nc2ccc4c(c2)OCO4)O3)cc1 (stereo not given)	-6%	-5%
C=CCC[C@@H](CCCCC)OC(=O)/C=C/[C@@H](O)[C@H](O)C[C@@H](O)CC=C	?	15%
CC(=O)c1cccc(NC(=O)c2cc(S(=O)(=O)N3CCCCC3)ccc2N2CCOCC2)c1	?	-6%
COc1ccc(OC)c(C(=O)CSc2nnc(C3CC3)n2C2CC2)c1	0%	-2%
O=C(Nc1ccc(OC(F)(F)F)cc1)c1cc(S(=O)(=O)N2CCCCC2)ccc1N1CCOCC1	-21%	9%
CCOc1ccc(-c2cc(C(=O)Nc3cccc(C(F)(F)F)c3)[nH]n2)c(C)c1	-11%	10%
O=C(Nc1cccc(C(=O)O)c1)/C(=C\c1ccccc1)NC(=O)c1ccc(Br)o1	-4%	11%
Cc1cccc(C)c1NC(=O)CN1CCN(C(=O)CNC(=O)Cc2cccc3ccccc23)CC1	?	5%
Cc1ccc(NC(=O)c2cc(S(=O)(=O)N3CCOCC3)ccc2Cl)cc1S(=O)(=O)N1CCOCC1	?	-14%
COc1ccc(Cn2c(=O)oc3ccccc32)cc1	-8%	15%
COc1ccc(CSC(=S)NNc2ccccc2)cc1	53%[activator]	-1%
CC(C)N1CCCC(C)(C(=O)Nc2cccc(Oc3ccccc3)c2)C1 (stereo not given)	-16%	-12%
Cc1csc(NC(C)c2nc3cc(C(F)(F)F)ccc3n2CCCO)n1 (stereo not given)	-11%	3%
CN(CC(=O)Nc1ccc(Cl)cc1)C(=O)CN1C(=O)C2CCCCC2C1=O (stereo not given)	0%	-2%
C[C@H]1CN(S(=O)(=O)C(C)(C)C)[C@H](CCO)/C1=C\c1ccccc1	-7%	4%
Cc1nc2c(OCCN3C(=O)c4ccccc4C3=O)cccn2c1N(C)C(=O)CCC1CCCC1	-15%	-6%

Screening results deposited in PubChem BioAssay by National Center for Advancing Translational Sciences (NCATS).
